Bioassay records: PubChem, National Center for Advancing Translational Sciences (NCATS)
Tau ThT inhib = qHTS for Inhibitors of Tau Fibril Formation, Thioflavin T Binding; Microtubule-associated protein tau (Homo sapiens), P10636; recombinant tau K18 P301L, heparin-induced fibrillization, ThT fluorescence; Potency, µM (titrated, usually from 57.4 µM), inactives show at the top dose activity, negative = inhibition, usual class: inhibitors; actives 2.1% (n = 270,000); AID 1460, 2008; note: nearly all actives have a fitted effect of over 55% in size
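Fibril formation assay: tau K18 P301L at 15 uM with trace Alexa 594 label, heparin inducer 20 uM, pH 7 sodium acetate buffer, 37 C for 6 hr; endpoint ThT signal.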
Lamin A splicing = qHTS Assay for Modulators of Lamin A Splicing; actives 0.01% (n = 200,000); HeLa LMNA splicing GFP/RFP minigene ratio, 48 h; Potency, µM (highest dose often 46.1 µM), for the others: at the highest dose ratio change, negative = inhibition, actives largely listed as inhibitors; active = well fitted inhibition curve with a large enough effect in the signal ratio, with a control signal flat, not every such curve was filed as active; inconclusive = small, poorly fitted or top-dose-only effect, or effect the other way, or a change in a side signal; the % refers to the signal ratio
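S3 HeLa stable clones carrying a lamin A-EGFP splicing minigene plus DsRed2 were seeded at 600 cells/well in Opti-MEM with 2% FBS, pin-dosed and incubated 48 h at 37°C. Acumen cytometry (488 nm) gave the GFP/RFP total-intensity ratio.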
RECQ1 helicase = qHTS Assay for Inhibitors of RecQ-Like Dna Helicase 1 (RECQ1); RECQ1 DNA unwinding, red fluorescence kinetic read; ATP-dependent DNA helicase Q1 (Homo sapiens), P46063; Potency, µM (doses to about 57.3 µM), without a hit: at the top dose activity, negative = inhibition, most hits filed as inhibitors; actives 0.54% (n = 240,000); AID 2549, 2010;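 note: plate controls were vehicle for no effect and no enzyme for full effect; nearly all actives have a fitted effect of over 30% in size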
Target sequence (P46063 whole entry, looked up): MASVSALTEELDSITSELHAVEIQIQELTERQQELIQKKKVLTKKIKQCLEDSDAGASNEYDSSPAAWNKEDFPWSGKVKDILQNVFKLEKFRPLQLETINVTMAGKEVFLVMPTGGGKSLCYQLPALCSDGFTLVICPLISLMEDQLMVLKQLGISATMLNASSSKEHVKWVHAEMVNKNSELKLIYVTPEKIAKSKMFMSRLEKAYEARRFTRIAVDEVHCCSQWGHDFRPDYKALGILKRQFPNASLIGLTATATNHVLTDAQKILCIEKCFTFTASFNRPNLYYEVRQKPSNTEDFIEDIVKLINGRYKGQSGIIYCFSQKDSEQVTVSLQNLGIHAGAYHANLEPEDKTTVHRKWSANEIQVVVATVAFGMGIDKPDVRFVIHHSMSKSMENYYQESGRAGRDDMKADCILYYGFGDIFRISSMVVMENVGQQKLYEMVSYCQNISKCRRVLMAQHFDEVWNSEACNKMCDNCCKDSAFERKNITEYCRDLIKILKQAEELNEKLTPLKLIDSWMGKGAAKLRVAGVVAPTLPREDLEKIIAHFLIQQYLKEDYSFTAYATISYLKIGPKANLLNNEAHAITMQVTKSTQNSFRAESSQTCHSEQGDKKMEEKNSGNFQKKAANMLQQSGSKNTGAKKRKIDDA
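RECQ1T1 50 nM; forked duplex (20 bp + 30-nt ss tails) 200 nM, ATP 2 mM final; pH 8.0, 2 mM MgCl2, 2.5 ug/ml poly(dI-dC); 15 min compound preincubation; discontinuous kinetic read over 2 h at RT.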
KinaseGlo FLuc = Counterscreen for Luciferase (Kinase-Glo TM) Inhibition | actives 0.28% (n = 200,000) | Kinase-Glo luciferase, ATP luminescence, 8 min | Potency, µM (top dose mostly 38.3 µM), inactives show top-dose activity change, negative = inhibition, usual class: inhibitors; note: nearly all actives have a fitted effect of over 60% in size
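Compound is pinned into ATP-containing buffer (10 uM ATP, imidazole pH 7.2, 7 mM MgCl2). Kinase-Glo luciferase reagent is then added. Light output is recorded following an 8-min room-temperature incubation.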
* hit, by the source's call; i = inactive; ? = inconclusive; . = no result given; & = joins results of further samples; [ ] = dose if it differs, or a comment. Unless noted, calls come from the whole dose curve; as a rule, active = well fitted inhibition curve with a large enough effect; inconclusive = small, poorly fitted or top-dose-only effect; inactive = flat fitted curve, though single readings scatter. Unless noted, % is set by controls: 0 for no effect and ±100 for the full control effect; potency is the fitted concentration of half-maximal effect. Only part of the results is shown. The share of hits here may be higher or lower than overall.

(1) CNCC(O)c1ccc(O)c(O)c1 (stereo unspecified)
(2) CCOC(=O)c1cc(C#N)c(N2CCN(C)CC2)nc1-c1ccccc1
(3) COc1ccc(C2CC2/C(C)=N/OC(=O)c2ccc(F)cc2)cc1 (stereo unspecified)
(4) OC[C@@H](O)[C@@H](O[C@H]1O[C@H](CO)[C@@H](O)[C@H](O)[C@H]1O)[C@H](O)[C@@H](O)CO
(5) CCCCCCCC(=O)N/N=C(/C)c1c(O)cc(C)oc1=O

| compound no. | 1 | 2 | 3 | 4 | 5 |
| --- | --- | --- | --- | --- | --- |
| Tau ThT inhib | -9%&-23% | ? | ? | -11% | -9% |
| Lamin A splicing | 0% | . | -14%[46 µM] | ? | -16% |
| RECQ1 helicase | 17% | -6% | -17% | 1% | -19% |
| KinaseGlo FLuc | 0%&0% | 1% | 4% | . | -3% |

(6) CSc1ccc(C(=O)c2[nH]c(=O)[nH]c2C)cc1
(7) Cc1nn2cc(-c3ccc(Cl)cc3)nc2s1
(8) CN(C)CCOC(c1ccccc1)c1ccccc1 (tested in a mixture with another compound)
(9) CC(=O)Nc1c(I)c(NC(C)=O)c(I)c(C(=O)O)c1I
(10) O=c1c2c(nc3nc(NCc4cccc5ccccc45)[nH]n13)CCC2

| compound no. | 6 | 7 | 8 | 9 | 10 |
| --- | --- | --- | --- | --- | --- |
| Tau ThT inhib | -4% | ? | -10%&-5% | -6%&-8% | -8% |
| Lamin A splicing | ? | -8% | ? | ? | . |
| RECQ1 helicase | i | i | 16% | -7%&-1% | -8% |
| KinaseGlo FLuc | -2% | -9% | -3% | 1%&0% | 0% |

In another format: entries from further up
item	SMILES	Tau ThT inhib	Lamin A splicing	RECQ1 helicase	KinaseGlo FLuc
1	CNCC(O)c1ccc(O)c(O)c1 (stereo unspecified)	-9%&-23%	0%	17%	0%&0%
2	CCOC(=O)c1cc(C#N)c(N2CCN(C)CC2)nc1-c1ccccc1	?	.	-6%	1%
3	COc1ccc(C2CC2/C(C)=N/OC(=O)c2ccc(F)cc2)cc1 (stereo unspecified)	?	-14%[46 µM]	-17%	4%
4	OC[C@@H](O)[C@@H](O[C@H]1O[C@H](CO)[C@@H](O)[C@H](O)[C@H]1O)[C@H](O)[C@@H](O)CO	-11%	?	1%	.
5	CCCCCCCC(=O)N/N=C(/C)c1c(O)cc(C)oc1=O	-9%	-16%	-19%	-3%
6	CSc1ccc(C(=O)c2[nH]c(=O)[nH]c2C)cc1	-4%	?	i	-2%
7	Cc1nn2cc(-c3ccc(Cl)cc3)nc2s1	?	-8%	i	-9%
8	CN(C)CCOC(c1ccccc1)c1ccccc1 (tested in a mixture with another compound)	-10%&-5%	?	16%	-3%

(listing goes on)
(11) COc1cc(C2C(C#N)=C(N)Oc3cc4c(cc32)OCO4)cc(OC)c1OC (stereo unspecified)
(12) CCOc1ccc(NC(=O)Nc2ccc3c(c2)N(C)C(=O)CS3)cc1
(13) O=C1Nc2c(c(=O)[nH]c(=O)n2-c2ccccc2)C1(Nc1ncccn1)C(F)(F)F (stereo unspecified)
(14) CCOC(=O)c1c(C=O)c2sc(C)cc2n1C

| compound no. | 11 | 12 | 13 | 14 |
| --- | --- | --- | --- | --- |
| Tau ThT inhib | -5% | -11% | -9% | -18% |
| Lamin A splicing | . | -11% | -4% | ? |
| RECQ1 helicase | i | -8% | -16% | -10% |
| KinaseGlo FLuc | 1% | -1% | 0% | -4% |

Full records, looked up by structure.
`COc1cc(C2C(C#N)=C(N)Oc3cc4c(cc32)OCO4)cc(OC)c1OC` (stereo unspecified) is listed with Tau ThT inhib = -5%; Lamin A splicing = .; RECQ1 helicase = i; KinaseGlo FLuc = 1%
`O=C1Nc2c(c(=O)[nH]c(=O)n2-c2ccccc2)C1(Nc1ncccn1)C(F)(F)F` (stereo unspecified) is listed with Tau ThT inhib = -9%; Lamin A splicing = -4%; RECQ1 helicase = -16%; KinaseGlo FLuc = 0%
